FGF22 binding – FGF22 (human) thermal shift binding; Q9HCT0; recombinant FGF22 thermal shift, SYPRO orange fluorescence; percent of sucrose octasulfate shift, DMSO zero; calls only at 9.99 µM; 340,000 compounds, 1.5% hits;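 active = melting point raised past a set limit in the mean and every replicate; inconclusive = no clear call; three in four hits are not shown here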
Target sequence (Q9HCT0 whole entry, looked up): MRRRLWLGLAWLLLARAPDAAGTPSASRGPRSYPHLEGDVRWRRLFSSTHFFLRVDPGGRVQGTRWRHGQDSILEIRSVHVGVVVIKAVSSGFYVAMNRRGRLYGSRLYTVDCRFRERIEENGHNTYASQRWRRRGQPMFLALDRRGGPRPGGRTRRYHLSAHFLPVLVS
Ecoli growth – blocks Escherichia coli growth; AID 1053175; OD600, 23 h; active compounds read low; OD600 absorbance (test concentration not listed); 330,000 compounds, 0.21% hits;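 active = OD600 absorbance below the run mean of sample wells minus 3.6 SD, in any replicate, cut at about 0.56 in these data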;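 note: stock transfer was 300 nL into about 60 µL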
MLL AF4-AF9 inh – inhibitors of human MLL-AF4/AF9 interaction; P42568; AlphaScreen, biotin-AF4 peptide binding to FLAG-AF9; inhibition, % at 10 µM; 350,000 compounds, 0.47% hits; AID 651704;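 active = every replicate reaching a set inhibition limit, whatever the replicate mean, cut at about 25% in these data; inconclusive = mean inhibition reaches that limit but some replicates miss it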;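 note: 0% = plate neutral control median and 100% = total signal loss; the record names both 10 and 1 µM as test concentration; the first replicate is given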
Target sequence (P42568 whole entry, looked up): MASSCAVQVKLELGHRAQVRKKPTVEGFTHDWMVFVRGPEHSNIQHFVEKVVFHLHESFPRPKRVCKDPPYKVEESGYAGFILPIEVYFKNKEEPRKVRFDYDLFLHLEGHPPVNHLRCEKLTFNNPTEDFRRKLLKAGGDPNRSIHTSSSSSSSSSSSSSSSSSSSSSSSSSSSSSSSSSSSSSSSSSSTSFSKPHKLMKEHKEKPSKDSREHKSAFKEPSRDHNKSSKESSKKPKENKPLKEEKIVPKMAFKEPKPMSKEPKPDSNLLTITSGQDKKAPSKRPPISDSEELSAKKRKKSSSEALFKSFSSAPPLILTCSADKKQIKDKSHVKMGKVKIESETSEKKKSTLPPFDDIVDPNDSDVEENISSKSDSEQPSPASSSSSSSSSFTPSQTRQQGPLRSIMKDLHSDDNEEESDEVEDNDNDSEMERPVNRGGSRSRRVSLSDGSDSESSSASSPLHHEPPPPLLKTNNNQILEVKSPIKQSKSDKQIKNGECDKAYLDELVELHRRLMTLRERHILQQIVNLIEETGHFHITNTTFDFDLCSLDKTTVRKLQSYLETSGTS
HNF4A DNA FP – change in binding of human HNF4 alpha to DNA; 360,000 compounds, 0.3% hits; HNF4a-FITC DNA binding, fluorescence polarization, 1 h; P41235; activity change, % at 10 µM; AID 1224865; in the data active = activity change above about 30%, passing the limit was not always enough;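 note: controls were the assay level and a saturating level of protein; the project sought stronger binding though the title names inhibitors; some compounds called inactive have numbers as strong as hits; positive values seem to mean higher polarization but the record does not say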
Vif TR-FRET – inhibitors of Vif binding to APOBEC3G peptide, primary screen, biochemical, TR-FRET, GST-Vif 1-94, biotin-A3G peptide, dose response retest (AID 1117319); one-dose inhibition, %; IC50 in µM for titrated hits; 260,000 compounds, 0.57% hits; TR-FRET GST-Vif / biotin-A3G peptide binding; higher % means a stronger effect; test concentration not given here; strong numbers were not always called active;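 active = above the screen mean plus three standard deviations and confirmed in dose response; inconclusive = results disagree or hit not tested in dose response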;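 note: Vif residues 1-94 fused to GST binding biotinylated APOBEC3G peptide 110-148; 0% = full assay without inhibitor and 100% = GST in place of GST-Vif; retest series ran down from 100 µM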
RanGTP-Impb inh – disruptors of Ran-importin-beta complex formation – biochemical, FRET, CFP-Ran, YFP-importin-beta, homogeneous, primary screen; 300,000 compounds, 1.1% hits; cell-free CFP-Ran/YFP-importin-beta FRET ratio; inhibition, % (no concentration beside the values);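 active = most replicates above 15%; inconclusive = exactly half above 15%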;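 note: 0% = DMSO wells and 100% = Ran loaded with GDP instead of GTP; wells of about 40 µL received 100 nL stock; the first replicate is given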
UCH37 DUB inh – inhibitors of human deubiquitinating enzyme UCH37; purified proteasome/UCH37, Ub-AMC cleavage fluorescence; inhibition, % (concentration not given with the values); 330,000 compounds, 0.33% hits; AID 588478;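 active = mean of two replicates above 20%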;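 note: 0% = compound-free wells with enzyme and 100% = wells lacking proteasome; stock transfer was 100 nL into about 20 µL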
Target sequence (Q9Y5K5 whole entry, looked up): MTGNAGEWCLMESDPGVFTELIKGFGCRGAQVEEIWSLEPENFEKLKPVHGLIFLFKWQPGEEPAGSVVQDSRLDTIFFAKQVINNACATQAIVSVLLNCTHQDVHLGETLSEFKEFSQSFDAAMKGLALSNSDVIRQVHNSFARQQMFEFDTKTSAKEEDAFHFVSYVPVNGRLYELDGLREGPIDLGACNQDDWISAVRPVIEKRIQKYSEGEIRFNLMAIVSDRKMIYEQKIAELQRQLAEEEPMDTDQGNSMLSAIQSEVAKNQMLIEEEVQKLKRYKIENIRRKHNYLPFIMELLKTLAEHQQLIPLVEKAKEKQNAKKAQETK
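system = Proteasome-associated human UCH37 deubiquitinase | amount = 0.15 nM proteasome as dispensed | medium = pH 7.4 Tris-HCl (50 mM) with ovalbumin, ATP-MgCl2, DTT | incubation = 30 min preincubation with enzyme, 25 min cleavage at room temperature | detection = AMC fluorescence 355/460 nm | read-out basis = percent inhibition | controls = no-proteasome and no-compound wells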
The depositor's hits bear a star; i = inactive; ? = inconclusive; / = no result given; & = joins results of further samples.

SMILES	FGF22 binding	Ecoli growth	MLL AF4-AF9 inh	HNF4A DNA FP	Vif TR-FRET	RanGTP-Impb inh	UCH37 DUB inh
O=C(COC(=O)C1CC(O)CN1C(=O)Oc1ccccc1)c1ccc(Br)cc1 (stereo not given)	/	0.67	/	-3.8	13%	-4.6	2.8
CCN(C(=O)c1ccc(Cl)c([N+](=O)[O-])c1)c1ccccc1	i	0.72	2.9	2.5	3%	0.6	6.0
CC1CCCCN1C(=O)Cn1cc(C(=O)c2ccco2)c2ccccc21 (stereo not given)	/	0.68	/	-0.5	33%	-1.5	1.4
Cc1ccc(NC(=O)c2ccc(NCc3ccco3)c([N+](=O)[O-])c2)cc1Cl	/	0.73	/	47*	12%	0.4	4.8
COc1cccc(CN2CCNC(=O)C2CC(=O)N(C)C2CCOCC2)c1OC (stereo not given)	i	0.7	-1.5	0.8	14%	-3.4	-0.4
COc1ccccc1CNC(=O)CN1NS(=O)(=O)c2ccccc2C1=O	/	0.73	1.7	1.8	0%	/	1.6
CCOc1ccc(NC(=O)COC(=O)C2C3CC4OC(=O)C2C4C3)cc1 (stereo not given)	i	0.73	1.8	-0.6	4%	5.0	3.8
COCCCNC(=O)C1CCCN(C(=O)Nc2ccc(OC)cc2)C1 (stereo not given)	/	0.72	/	-0.7	0%	0.0	0.9
N#Cc1c2c(c(-c3ccccc3)[nH]c1=O)CCCC2	/	0.65	0.5	0.2	5%	5.1	-50
Cc1ccccc1NC(=O)c1cccc2nc3ccccc3nc12	/	0.7	/	1.1	6%	?	4.6
O=C(Nn1cnnc1)c1cc(-c2cccc(Br)c2)nc2ccccc12	i	0.68	4.0	-1.5	75%	?	1.0
NNC(=O)c1cncc(Br)c1	i	0.67	-2.4	4.9	-3%	-1.9	1.6
O=C(COc1cccc(Br)c1)N/N=C1\CCCc2ccccc21	i	/	-19	-1.9	1%	-0.2	/
COc1cc(/C=N/NC(=O)c2ccccn2)cc2c1OCO2	i	/	-3.0	-3.5	1%	-4.3	/
CCOc1ccc(NC(=O)CSc2nc3ccccc3nc2N2CC(C)OC(C)C2)cc1 (stereo not given)	i	0.73	0.9	-3.4	/	-3.3	2.2
COc1ccc(Cl)cc1N=Cc1c(O)cc(C)oc1=O	/	0.72	/	-0.3	/	-2.0	0.8
Cc1c(C(=O)NN2CCOCC2)oc2c1ccc1ccccc12	i	0.67	-3.3	-0.3	-3%	1.8	2.5
O=C(Cn1nc2ccccc2n1)N/N=C/c1cc([N+](=O)[O-])ccc1O	/	/	-4.4	0.6	10%	0.7	/
COc1ccc(C(C(=O)Nc2ccc3c(c2)OCO3)N(C)C(=O)Cc2c[nH]c3ccccc23)cc1 (stereo not given)	i	0.68	11	0.0	/	5.5	2.4
O=C(O)c1cccc(OCCN2CCCC2=O)c1	i	0.66	-1.1	-0.9	-7%	-19	0.1
Cc1ccc(CCSCC(=O)O)cn1	/	0.69	/	2.7	0%	0.4	0.9
CCc1nc(Nc2ccc(N3CCN(C(C)=O)CC3)cc2)c2oc3ccccc3c2n1	/	0.71	/	2.7	14%	-0.8	-1.3
CC(C)NC(=O)c1ccc2sc([C@H]3C[C@H](O)[C@@H](CO)O3)nc2c1	i	/	0.0	2.2	/	/	/
O=C(CCc1ccc(S(=O)(=O)N2CCOCC2)cc1)Nc1ccc(F)c(F)c1F	i	0.71	2.4	2.4	/	/	-0.6
CN(Cc1ccccc1)c1nc2c(c(=O)n(C)c(=O)n2C)n1CCSc1ncccn1	i	0.69	-6.3	1.3	-2%	-3.1	3.6
O=C(Nc1ccc(N2CCN(C(=O)c3ccccc3)CC2)cc1)c1ccc2c(c1)OCCO2	i	0.7	-0.3	2.6	/	5.7	1.3
CC(=O)c1ccc(Nc2nc(C(N)c3ccccc3)cs2)cc1 (stereo not given)	i	/	1.2	2.7	/	/	/
CC1CCC(C(C)C)C(OC(=O)CSc2nccc(=O)[nH]2)C1 (stereo not given)	/	0.74	/	4.1	5%	0.0	6.0
Cc1ccc(NC(=O)c2ccc(S(=O)(=O)N3CCCCCC3)cc2)nc1	i	0.66	-36	-0.8	-5%	5.8	-0.1
Fc1cccc(Cl)c1COc1ccc(-c2nnco2)cc1	i	0.63	-5.3	0.8	/	3.9	1.5
CC(C)c1ccc(NC(=O)N2CCOCC2)cc1	i	0.64	-10	-1.7	/	?	3.7
COc1ccccc1NS(=O)(=O)c1ccc(Cl)c(NC(=O)C(C)N2C(=O)c3ccccc3C2=O)c1 (stereo not given)	/	0.68	/	0.5	/	-0.4	1.7
CC1=CC2=NC(=O)/C(=C/c3coc4ccc(Cl)cc4c3=O)C(=N)N2O1	/	0.68	-4.8	55	/	-14	4.6
COc1cccc(NC(=O)COc2ccc(N3CC(C(=O)NCC(C)C)CC3=O)cc2)c1 (stereo not given)	/	0.75	/	-1.2	3%	-0.6	2.1
COC(=O)[C@@]1(Cc2ccc(F)cc2)[C@H]2c3cc(C(=O)N(C)C)n(Cc4cc(C)n(C)n4)c3C[C@H]2CN1C(=O)c1ccccc1	i	/	10	-0.7	/	/	/
Cn1c(=O)c2c(nc(Oc3ccc4c(c3)OCO4)n2Cc2ccc(F)cc2)n(C)c1=O	/	0.72	/	29	2%&0%	-2.1	1.0
OCCn1c(SCCOc2ccccc2)nc2ccccc21	/	0.7	/	0.8	-5%	0.0	1.1
CCCn1c(N)c(N(CCOC)C(=O)c2ccc(F)cc2F)c(=O)[nH]c1=O	i	0.7	-14	0.9	/	-2.9	2.2
Cc1cc(-c2nc(C)c(-c3nnc(SCC(=O)Nc4ccc(Cl)cc4)n3C)s2)no1	i	0.69	-1.4	-0.1	-5%	0.9	-15
COc1ccc(C2C3(C#N)C(N)=NC(OC)(OC)C23C#N)cc1 (stereo not given)	i	/	-0.2	4.9	/	3.7	/

Four entries drawn at random from the list so far, as already listed:
SMILES	FGF22 binding	Ecoli growth	MLL AF4-AF9 inh	HNF4A DNA FP	Vif TR-FRET	RanGTP-Impb inh	UCH37 DUB inh
Cn1c(=O)c2c(nc(Oc3ccc4c(c3)OCO4)n2Cc2ccc(F)cc2)n(C)c1=O	/	0.72	/	29	2%&0%	-2.1	1.0
O=C(O)c1cccc(OCCN2CCCC2=O)c1	i	0.66	-1.1	-0.9	-7%	-19	0.1
COCCCNC(=O)C1CCCN(C(=O)Nc2ccc(OC)cc2)C1 (stereo not given)	/	0.72	/	-0.7	0%	0.0	0.9
CN(Cc1ccccc1)c1nc2c(c(=O)n(C)c(=O)n2C)n1CCSc1ncccn1	i	0.69	-6.3	1.3	-2%	-3.1	3.6

Next results follow:
SMILES	FGF22 binding	Ecoli growth	MLL AF4-AF9 inh	HNF4A DNA FP	Vif TR-FRET	RanGTP-Impb inh	UCH37 DUB inh
COc1ccccc1-c1ccc(SCc2ccc(F)cc2)nn1	i	0.68	-2.1	7.0	16%	6.6	-0.6
COCC1CCCN(C(=O)c2ccc(OC3CCN(Cc4ccccn4)CC3)cc2)C1 (stereo not given)	i	0.71	8.5	2.1	4%	7.9	4.0
Cc1ccccc1NC(=O)Cc1nc(COC(=O)C(NC(=O)c2ccccc2C)C(C)C)cs1 (stereo not given)	i	0.7	0.9	-0.9	-4%	/	3.6
Cc1cc(=O)oc2cc(OC(C)C(=O)NCCCn3ccnc3)ccc12 (stereo not given)	i	0.62	-3.2	1.9	/	7.0	-12
O=C(/C=C/c1ccccc1Cl)N(Cc1ccc(Cl)cc1)C1CCS(=O)(=O)C1 (stereo not given)	/	0.71	/	-0.1	24%	-0.9	0.9
O=C1OC(/C=C/c2ccc(Cl)cc2)=NC/1=C/c1ccco1	/	0.66	/	0.4	?	0.4	4.5
CC(C)C(NCc1c(Cl)cccc1Cl)C(=O)O (stereo not given)	i	0.69	-19	-1.1	-1%	3.8	-0.6
Cc1ccc(C(c2c(C)[nH][nH]c2=O)c2c(C)[nH][nH]c2=O)cc1[N+](=O)[O-]	/	0.7	/	3.2	/	-5.0	5.1
CCOc1ccc(CNC(=O)C2CCN(S(=O)(=O)N3CCCC3)CC2)cc1OC	/	0.7	/	0.5	30%	-1.4	-1.2
CCN(c1ccccc1)S(=O)(=O)c1ccc(OC)c(NC(=O)Cc2ccc(OC)c(OC)c2)c1	i	0.7	-0.5	3.0	/	/	-0.4
Cc1ccc2oc(=O)c3cc(C(=O)NCCN4CCc5ccccc5C4)sc3c2c1	i	0.71	-37	2.9	/	?	-4.7
COC(=O)c1ccccc1OCc1cccc(C)n1	/	0.7	/	-0.6	2%	6.5	3.6
O=C(NCCc1ccccc1)C1(S(=O)(=O)c2ccc(Cl)cc2)CC1	i	0.69	3.8	-4.2	-6%	-2.1	-0.6
Cc1cc(C)nc(NS(=O)(=O)c2ccc(NC(=O)CSc3nc4ccccc4[nH]3)cc2)n1	i	0.73	-1.6	1.6	32%	9.6	1.5
O=C1Oc2ccccc2C(=O)/C1=C\N1CCN(c2ccccc2)CC1	i	0.7	-0.1	-2.2	26%	-1.0	1.8
CC(=O)Nc1ccc(-c2ccc(NC(C)=O)c(O)c2)cc1O	i	0.65	3.8	19	32%	-2.7	0.8
CC(=O)Nc1ccc(NC(=S)NC(=O)/C=C/c2ccc(Cl)cc2)cc1	i	0.71	-3.1	1.1	1%	0.4	7.7
Nc1nc2c(nc(SCc3ccccc3Br)n2[C@@H]2O[C@H](CO)[C@@H](O)[C@H]2O)c(=O)[nH]1	i	0.62	-2.3	-0.9	-6%	-1.1	1.0
CCCCCc1nnc(NC(=O)C(=O)OCC)s1	/	0.75	/	-5.5	2%	5.8	1.6
O=C(NCc1ccc(C(F)(F)F)cc1)C1CC(c2c(Cl)cccc2Cl)=NO1 (stereo not given)	i	0.68	2.5	-5.0	-6%	2.9	1.7
Cc1ccc(N2CC(C(=O)N3CCC(C(=O)NC(C)(C)C)CC3)CC2=O)cc1 (stereo not given)	i	0.61	-0.6	-3.4	/	2.1	2.8
CC1CN(C2CCN(C(=O)COc3ccc(Cl)cc3)CC2)CC(C)O1 (stereo not given)	/	0.74	/	-0.6	-3%&8%	3.5	4.6
COc1ccc(-c2cc(C(=O)OCC(=O)NC3CC3)c3ccccc3n2)cc1	i	0.68	0.5	4.9	-1%	/	-105
Cc1cc2c(cc(C(=O)OCC(=O)NC3CCCCC3)n2C)o1	i	/	-2.6	-1.1	/	/	/
COc1ccc(CCNC(=O)CSc2nn(-c3ccccc3)c(=S)s2)cc1OC	/	0.68	/	-0.9	/	0.8	2.0
COc1cc(-c2nnc3n2CCCCC3)cc(OC)c1OC	i	0.67	-3.8	0.0	-1%	6.6	-0.7
CCCC(C(=O)O)n1c(O)c(C=C2N=c3ccccc3=N2)sc1=S (stereo not given)	i	0.67	-6.6	4.6	-8%	2.5	10
CC(C)Nc1ncnc2c1ncn2[C@H]1CN(Cc2cccnc2)C[C@@H](CO)O1	i	/	-0.3	1.1	/	/	/
Cc1cc(NC(=O)CCl)n(-c2nc3ccccc3s2)n1	i	0.64	-2.5	-1.2	-1%	-0.3	2.9
CCc1ccc(N2C(=O)C3NN=C(C(=O)OCc4ccccc4)C3C2=O)cc1 (stereo not given)	/	/	/	1.3	11%	2.1	-0.9
O=C(O)C1CCN(C(=O)OCc2ccccc2)CC1	/	0.68	/	7.5	-6%	?	4.1
N/C(=N\OC(=O)c1cc(-c2ccccc2)nc2ccccc12)c1cccnc1	i	0.66	4.3	-0.3	-6%	1.3	-2.1

3 entries from above, arranged by the number in MLL AF4-AF9 inh, highest first:
structure | MLL AF4-AF9 inh
Cc1ccc(N2CC(C(=O)N3CCC(C(=O)NC(C)(C)C)CC3)CC2=O)cc1 (stereo not given) | -0.6
COc1cc(-c2nnc3n2CCCCC3)cc(OC)c1OC | -3.8
CCCC(C(=O)O)n1c(O)c(C=C2N=c3ccccc3=N2)sc1=S (stereo not given) | -6.6

Some of the compounds tested. The share of hits here may be higher or lower than overall.
